RE007 growth inh: qHTS Assay for Inhibitors of the HIV-1 protein Vpr; S. pombe RE007 Vpr strain, BacTiter-Glo ATP luminescence, 24 h; control for the full effect not named in the record; Potency, µM (titrated, usually from 92.2 µM), for the others: at the highest dose activity change, negative = less growth; actives 0.21% (n = 360,000); AID 651644, 2012; active = well fitted falling curve with a large enough effect; inconclusive = small, poorly fitted or top-dose-only effect; inactive = no such curve, though single readings can be large or run the other way;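 note: % is set by controls: 0 for no effect and ±100 for the full control effect; nearly all actives have a fitted effect of over 50% in size; the assay follows cell death caused by Vpr and the record does not say whether a fall means rescue or toxicity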
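Fission yeast strain RE007, carrying one chromosomally integrated HIV-1 vpr copy, was seeded at OD 0.01 in PMG+AL medium with 23 nL pinned compound. After 24 h at 30 °C and 99% humidity, viability was read by BacTiter-Glo luminescence.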
MARV entry inh: qHTS for inhibitors of binding or entry into cells for Marburg Virus | Marburg virus pseudotyped entry inhibition, cell reporter; control for the full effect not named in the record; about a third of the inactives were read at about 46 µM | Potency, µM (highest dose often 37.8 µM), for the others: top-dose activity change, negative = inhibition, hits mostly inhibitors | actives 1.8% (n = 300,000) | AID 540276, 2011; active = well fitted inhibition curve with a large enough effect; inconclusive = small, poorly fitted or top-dose-only effect, or effect the other way; inactive = flat fitted curve, though single readings scatter; tested in HEK293 cells; about a fifth of its hits are not listed in these tables; note: % is set by controls: 0 for no effect and ±100 for the full control effect; luciferase read-out
Cruzain noTriton: qHTS Assay for Promiscuous and Specific Inhibitors of Cruzain (without detergent); purified cruzain, Z-FR-AMC fluorescence, no detergent; Potency, µM, for inactives: max response, negative = inhibition, most hits filed as inhibitors; actives 2.3% (n = 200,000);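 note: plate controls were enzyme without inhibitor for no effect and buffer without enzyme for full effect; nearly all actives have a fitted effect of over 40% in size; top concentration of the series not given in the record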
Target sequence (P25779 123-467 limits assumed): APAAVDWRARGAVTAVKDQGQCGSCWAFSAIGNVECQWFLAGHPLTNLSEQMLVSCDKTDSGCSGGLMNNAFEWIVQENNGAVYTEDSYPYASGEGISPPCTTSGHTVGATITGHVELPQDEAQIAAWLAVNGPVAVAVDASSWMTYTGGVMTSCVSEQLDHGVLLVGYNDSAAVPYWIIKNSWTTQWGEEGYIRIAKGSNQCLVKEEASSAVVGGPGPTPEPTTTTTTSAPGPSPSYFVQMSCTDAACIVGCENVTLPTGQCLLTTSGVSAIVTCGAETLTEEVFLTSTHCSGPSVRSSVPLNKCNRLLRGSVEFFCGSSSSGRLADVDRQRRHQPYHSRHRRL
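Detergent-free condition (0.00005% Triton X-100) in acetate buffer pH 5.5 with DTT. 1.5 nM enzyme and compound were pre-mixed 15 min, then 2 uM Z-FR-AMC substrate added; reaction progress from fluorescence change between first and third reads (60 s).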
NS1 function inh: qHTS Assay for Inhibitors of Influenza NS1 Protein Function | S. cerevisiae slowed by influenza A NS1, growth recovery by OD600 | Potency, µM (doses to about 46.1 µM), for the others: at the top dose activity, positive = more growth | actives 0.4% (n = 270,000) | AID 2326, 2010; active means well fitted rising curve with a large enough effect; inconclusive means small, poorly fitted or top-dose-only effect; inactive means no such curve, though single readings can be large or run the other way; note: nearly all actives have a fitted effect of over 50% in size
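OD600 was taken as the measure of yeast growth restored by compound in an NS1-expressing S. cerevisiae strain. Cells had been washed out of glucose medium and diluted 1:100 into galactose -URA medium, pH 6.0.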
StopGo reporter: High Throughput Screening for Foot and Mouth Disease Virus Antivirals. actives 1.2% (n = 410,000). human cells with a luciferase reporter of 2A StopGo recoding; control for the full effect not named in the record. Potency, µM (top dose mostly 57.9 µM), without a hit: at the top dose signal change, negative = less light. AID 1159524, 2015; active = well fitted falling curve with a large enough effect; inconclusive = small, poorly fitted or top-dose-only effect; inactive = no such curve, though single readings can be large or run the other way; tested in HEK293T cells; note: % is set by controls: 0 for no effect and ±100 for the full control effect; nearly all actives have a fitted effect of over 45% in size; luciferase light after 4 h
SARS PLpro yeast: qHTS of Yeast-based Assay for SARS-CoV PLP. S. cerevisiae expressing SARS-CoV PLpro, growth rescue; control for the full effect not named in the record. Potency, µM (top dose mostly 32.9 µM), without a hit: at the highest dose activity, positive = growth rescue. actives 0.19% (n = 330,000). AID 485353, 2010; active means well fitted rising curve with a large enough effect; inconclusive means small, poorly fitted or top-dose-only effect; inactive means no such curve, though single readings can be large or run the other way; note: 0% is about no effect; nearly all actives have a fitted effect of over 55% in size; growth read by luminescence after 48 h
Lassa entry inh: qHTS for Inhibitors of binding or entry into cells for Lassa Virus. Lassa virus pseudotype entry inhibition, cell reporter; control for the full effect not named in the record. Potency, µM (titrated, usually from 37.9 µM), for the others: at the top dose activity change, negative = inhibition, usual class: inhibitors. actives 1.2% (n = 300,000); active means well fitted inhibition curve with a large enough effect; inconclusive means small, poorly fitted or top-dose-only effect, or effect the other way; inactive means flat fitted curve, though single readings scatter; tested in HEK293 cells; note: % is set by controls: 0 for no effect and ±100 for the full control effect; nearly all actives have a fitted effect of over 50% in size; luciferase read-out
Cruzain inh Det: qHTS Assay for Promiscuous and Specific Inhibitors of Cruzain (with detergent); purified cruzain, Z-FR-AMC fluorescence, 0.01% Triton; Potency, µM, without a hit: max response, negative = inhibition, actives largely listed as inhibitors; actives 0.43% (n = 200,000); AID 1478, 2009;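 note: plate controls were neutral wells for no effect and buffer without enzyme for full effect; nearly all actives have a fitted effect of over 40% in size; top concentration of the series not given in the record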
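Detergent-containing run (0.01% Triton X-100) in acetate buffer pH 5.5 with 5 mM DTT: enzyme at 1.5 nM final, 15 min compound preincubation at room temperature, then 2 uM Z-FR-AMC substrate. Activity taken as 60 s fluorescence increase at 360/450 nm.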
* hit, by the source's call; ? = inconclusive; nt = no result given; & = joins results of further samples; [ ] = dose if it differs, or a comment. Unless noted, calls come from the whole dose curve; as a rule, active = well fitted curve in the direction sought with a large enough effect; inconclusive = small, poorly fitted or top-dose-only effect, or another doubt; inactive = no such curve, though single readings can be large; an effect the other way counts as inactive or inconclusive. Potency is the fitted concentration of half-maximal effect.

Values in the order: RE007 growth inh	MARV entry inh	Cruzain noTriton	NS1 function inh	StopGo reporter	SARS PLpro yeast	Lassa entry inh	Cruzain inh Det
Cc1ccccc1CNC(=O)c1ccccc1C
    2%	3%	0%	0%	-14%	-4%	1%	11%
CCOc1ccc(C(=O)NN2C(=S)NC(C)(C)C=C2C)cc1
    -10%	29%	nt	-2%	61%[activator]	0%	-8%	nt
Cn1c(Cn2cnc3ccccc32)nnc1SCc1ccccc1
    30%	12%	5%	-9%	-27%	4%	-13%	3.5%
COc1ccc([C@@H]2[C@H]3CN(C(C)=O)CC=C3C(C#N)=C(N)C2(C#N)C#N)c2ccccc12
    -29%	-16%&-16%[46.1 µM]	?	25%	?	0%	-23%	-9.1%
Cc1ccc(C(C)C)c(OCC(=O)Nc2c(C(=O)c3ccccc3)oc3ccccc23)c1
    nt	3%[46.1 µM]	6%	nt	-1%	nt	10%[46.1 µM]	-0.6%
CC(=O)CC(C)(C)Nc1nc2cc([N+](=O)[O-])ccc2o1
    -13%	nt	nt	3%	7%	0%	nt	nt
Cc1csc(NC(=O)CSc2nnc(Cc3cccn3C)n2CCc2ccccc2)n1
    -2%	-36%	?	nt	-25%	2%	1%	-4.2%
COc1ccc(C)cc1S(=O)(=O)N(C)CC(=O)Nc1ccccc1
    3%	10%	-7%	-13%	-8%	3%	-1%	4.9%
CC(C)CC(=O)Nc1cccc2c1C(=O)N(c1ccccc1)C2=O
    -18%	-10%	-18%	-8%	-11%	6%	-10%	-6.7%
O=C(c1cc2ccccc2oc1=O)N1CCN(c2ccc(N3CCOCC3)nn2)CC1
    -1%	-5%	-11%	-5%	-3%	-2%	nt	-14%
COc1ccc(CC(=O)N(C)CC(=O)Nc2c(C)cccc2C)cc1S(=O)(=O)N1CCOCC1
    3%	-2%	nt	nt	-9%	-1%	0%	nt
O=C(CCNC(=O)C1CCN(S(=O)(=O)c2ccc(F)cc2)CC1)NCc1ccccc1Cl
    -16%	nt	nt	-4%	-16%	7%	nt	nt
COc1ccc(NC(=O)Cn2c(=O)n(-c3ccc(C)c(C)c3)c(=O)c3c4c(sc32)CCCCC4)cc1Cl
    nt	25%[46.1 µM]	1%	nt	-15%	nt	-18%[46.1 µM]	-1.9%
O=c1c2ccccc2sn1-c1ccc(S(=O)(=O)N2CCCCC2)cc1
    1%	-22%&-22%&-22%	nt	-10%	nt	nt	?	nt
O=C(NC1CCCc2ccccc21)C1CCC(CNc2c(N3CCOCC3)c(=O)c2=O)CC1 (stereo not given)
    -2%	-1%	-7%	-9%	-12%	1%	-1%	-5.6%
CCOc1ccc(CNc2ncnc(N)n2)cc1
    -4%	3%	0%	7%	-9%	-1%	7%	-5.5%
CCN(C(=O)CN1C(=O)/C(=C/c2ccccc2F)SC1=S)C1CCS(=O)(=O)C1 (stereo not given)
    8%	nt	nt	5%	2%	29%	nt	nt
O=C(CNC(=O)C1COc2ccccc2O1)N/N=C/c1ccc(O)cc1O (stereo not given)
    18%	?	-6%	0%	-9%	7%	?	-6.0%
CCCOC(=O)c1ccc(OCC(O)CN2CCN(C(=O)c3ccccc3)CC2)cc1 (stereo not given)
    10%	0%[46.1 µM]	18%	-21%	0%	3%	?	5.2%
CCN(Cc1ccncc1)Cc1cn[nH]c1-c1ccc(OC)cc1F
    17%	?	nt	-1%	-21%	1%	-12%	nt
C/C(CC(=O)NC12CC3CC(CC(C3)C1)C2)=N\NC(=O)c1ccc(F)cc1
    11%	-19%[46.1 µM]	nt	6%	-9%	-1%	-29%	nt
CCCOc1ccc(-c2cccc(NS(=O)(=O)c3cccs3)c2)nn1
    nt	nt	1%	nt	50%[activator]	nt	24%[46.1 µM]	-5.4%
CC(C)(C)c1ccc(C(=O)NCC(=O)OCC(=O)c2ccc3c(c2)-c2ccccc2C3)cc1
    32%	1%	25µM*	25%	8%	6%	0%	-3.8%
CC(=O)C(C(c1ccccc1)N1CCOCC1)N1CCOCC1 (stereo not given)
    14%	1%[46.1 µM]	nt	nt	-18%	nt	2%[46.1 µM]	nt
Cc1nnc(Sc2c(N)n(C)c(=O)n(C)c2=O)s1
    21%	1%	-5%	0%	-7%	18%	15%	4.8%
Cc1nn(CC(=O)NCCc2ccccc2)c(=O)c2cccn12
    -7%	nt	nt	-9%	-6%	4%	nt	nt
CCN(CC)C(=O)c1sc2c(c1C)c(=O)n(-c1ccc(C)c(C)c1)c(=O)n2CC(=O)Nc1ccc(OC)cc1OC
    nt	nt	?	nt	-8%	nt	-2%[46.1 µM]	1.7%
Cc1ccc(-n2nc3c(=O)n(CCCC(=O)NCc4ccc(C)o4)nc(C)c3c2C)cc1
    -2%	nt	nt	3%	-11%	10%	nt	nt
O=C(O)CSCc1nc2ccccc2s1
    -5%	9%	4%	?	71%[activator]	4%	12%	3.2%
CCCOc1ccc(/C=N/NC(=O)c2nnn(-c3nonc3N)c2-c2cccs2)cc1OC
    7%	2%[46.1 µM]	nt	-5%	11%	3%	-10%[46.1 µM]	nt
Cc1cccc(-c2cc3nc(-c4ccccc4)cc(N4CCC5(CC4)OCCO5)n3n2)c1
    4%	-13%	?	6%	?	-25%	-11%	?
CCc1nc2ccccc2n1Cc1ccccc1F
    11%	17%[46.1 µM]	nt	-1%	-15%	1%	18%	nt
COc1ccc(CCNC(=O)c2sc3ccccc3c2Cl)cc1OC
    -27%	-17%	9%	-8%	?	-27%	-6%	-11%
CC(C)c1ccc(S(=O)(=O)c2n[nH]n3c2nc(=O)c2ccccc23)cc1
    4%	-9%	?	-8%	7%	-21%	5%	1.9%
CCOC(=O)c1cc2c(=O)n3cccc(C)c3nc2n(CCCOC)c1=NC(=O)c1cccnc1
    10%	-13%	17%	-4%	-2%	-2%	2%	?
Cc1cc(Br)cc(C)c1NC(=O)c1ccc(C#N)cc1F
    -6%	-1%[46.1 µM]	nt	-1%	-8%	-1%	2%[46.1 µM]	nt
COc1cccc(Nc2nnc(SCC(=O)Nc3sccc3C(N)=O)s2)c1
    -1%	nt	nt	-6%	16µM*	0%	nt	nt
COc1ccccc1CN1CCc2c([nH]c3ccccc23)C1
    ?	nt	nt	-8%	-12%	4%	nt	nt
CC(=O)N1CCN(c2ccc(Nc3nc(C)nc4c3oc3ccccc34)cc2)CC1
    9%	-22%	20%	-13%	25µM*	-1%	28%	-3.7%
Cc1ccc(S(=O)(=O)N2CCOCC2)cc1NC(=O)CSc1nccn1C
    -2%	6%	-7%	11%	-6%	-17%	6%	-0.4%
O=C(OCC(=O)N1CCN(C(=O)c2ccco2)CC1)c1sc2cc(F)ccc2c1Cl
    -1%	3%	?	-39%	-14%	2%	15%	-7.1%
Cc1ccc(S(=O)(=O)Cc2c(C)noc2C)cc1
    -12%	10%	-4%	2%	-20%	2%	-15%	8.4%
N[C@@H](Cn1oc(=O)[nH]c1=O)C(=O)O
    12%[18.4 µM]	9%&-12%&-12%&-12%&-12%&9%	4%&9%	-21%	-13%&-7%&9%	nt	?	-5.7%&1.3%
CN1N=C(C(=O)N2CCN(c3ccc([N+](=O)[O-])cc3)CC2)CCC1=O
    -4%	?	2%	0%	0%	0%	16%	-7.7%
Cc1cc(OCC(=O)Nc2nnc(C3CC3)s2)ccc1[N+](=O)[O-]
    -11%	-27%[46.1 µM]	nt	nt	6%	1%	nt	nt
COc1ccc(CNc2ncc(-c3ccccc3)n2C)c(OC)c1OC
    1%	nt	nt	-5%	0%	-2%	nt	nt
CCC(NS(=O)(=O)c1cn(C)nc1C)c1ccccc1 (stereo not given)
    24%	0%[46.1 µM]	nt	0%	14%	1%	6%	nt
O=C(CSc1nc2ccccc2o1)N1c2ccccc2Sc2ccccc21
    3%	?	?	-1%	-21%	-5%	?	-2.4%
COc1cc(NS(=O)(=O)c2ccc(F)cc2)c(C(=O)O)cc1OC
    0%	-1%[46.1 µM]	-5%	5%	-10%	6%	-3%	3.7%
CC(=O)Nc1ccc(NC(=O)CN(c2ccc([N+](=O)[O-])cc2)S(=O)(=O)c2ccccc2)cc1
    -4%	nt	nt	1%	-2%	1%	nt	nt

Later entries.
Values in the order: RE007 growth inh	MARV entry inh	Cruzain noTriton	NS1 function inh	StopGo reporter	SARS PLpro yeast	Lassa entry inh	Cruzain inh Det
CCOC(=O)c1c(-c2ccccc2)oc2ccc(OC)cc12
    -12%	28%	4%	-6%	-5%	-13%	-1%	-26%
Cc1ccc(C(CNC(=O)Nc2ccccc2)N2CCN(C)CC2)cc1 (stereo not given)
    -6%	?	nt	6%	-11%	-1%	4%[46.1 µM]	nt
Cc1c(CCC(=O)O)c(=O)n2c([nH]c3ccccc32)c1C#N
    -1%	-7%	-2%	3%	-8%	7%	-4%	-1.7%
Cc1cccc(C)c1NC(=O)CCCSc1nnc(-c2ccc(Cl)cc2)n1-c1ccccc1
    -4%	?	?	-39%	14µM*	-12%	?	2.1%
CCCCCOc1ccc(N2C(=O)C3C4C=CC(C3C2=O)N(C)C4=O)cc1 (stereo not given)
    -1%	-12%	?	7%	?	22%	0%	-2.5%
CCc1ccc(C2=C(C)C(N3CCC(C(=O)NCc4ccc(C)o4)CC3)=NS2(=O)=O)cc1
    nt	nt	-1%	nt	-13%	nt	21%[46.1 µM]	-3.8%
Cc1ccc2c(=O)c(C(=O)c3ccc(Cl)cc3)cn(CC(=O)NC3CCCCC3)c2n1
    nt	nt	6%	nt	-11%	nt	12%[46.1 µM]	-0.4%
FC(F)(F)c1cccc(N2CCN(C(=S)NC3CCCCC3)CC2)c1
    ?	?	1%	6%	?	1%	-14%	-3.1%
COc1cccc(-c2c[nH]c(=O)[nH]c2=O)c1
    2%	?	nt	1%	-1%	1%	6%	nt
Cc1cc(NS(=O)(=O)c2ccc(CC(C)C)cc2)no1
    8%	0%	15%	-123%	6%	-12%	1%	0.2%

Screening data (PubChem)
